GIV-Gai inh – inhibitors of GIV GBA-motif binding to rat Galpha-i3; P08753; Galpha-i3/FITC-GIV peptide fluorescence polarization, 90 min; hits give low values; scaled: aluminum fluoride 0%, vehicle 100%; percent of control (FP), % (concentration not given with the values); 0.42% of 210,000 active;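 active = replicate mean at 85% of control or lower, very high polarization wells dropped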;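 note: wells of about 15 µL received 100 nL stock; the first replicate is given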
Target sequence (P08753 whole entry, looked up): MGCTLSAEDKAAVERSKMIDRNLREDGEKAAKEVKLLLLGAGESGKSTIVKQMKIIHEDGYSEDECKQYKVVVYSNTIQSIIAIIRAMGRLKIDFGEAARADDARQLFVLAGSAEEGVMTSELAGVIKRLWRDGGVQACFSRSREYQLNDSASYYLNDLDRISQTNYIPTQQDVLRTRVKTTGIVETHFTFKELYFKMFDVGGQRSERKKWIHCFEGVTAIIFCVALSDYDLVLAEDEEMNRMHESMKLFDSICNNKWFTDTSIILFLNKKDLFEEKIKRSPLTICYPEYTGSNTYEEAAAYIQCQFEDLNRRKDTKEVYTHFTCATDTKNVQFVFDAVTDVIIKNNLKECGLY
Sa growth inh – blocks Staphylococcus aureus growth; S. aureus RN4220 growth, OD600, 20 h, 42 °C; hits give low values; relative growth, % (no concentration beside the values); 0.53% of 170,000 active; AID 720641;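 active = growth at 42 °C up to 50% and 20 or more points under that at 30 °C, or under 10% at both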;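 note: 300 nL library stock went into each well; scaled to the means of positive and negative controls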
HCMV NEC inh – inhibitors of HCMV UL50-UL53 nuclear egress complex interaction; HTRF UL50-UL53 interaction, normalized percent inhibition; inhibition, % (test concentration not listed); 0.15% of 190,000 active;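 active = both replicates at 50% or more, plus weaker picks with an unusually low signal ratio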;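 note: stock transfer was 100 nL into about 20 µL; 0% = negative control wells and 100% = wells with untagged competitor protein; inactives centre near -12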
Sa growth inh second temp – recorded beside Sa growth inh, whose call it bears; relative growth, %; measured here: growth at 30 °C;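 optical density after 20 h as mean of two plates; 100% = untreated growth and lower means inhibition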
* = called active by the depositor; . = not tested or not shown; & = joins results of further samples.

smiles	GIV-Gai inh	Sa growth inh	Sa growth inh second temp	HCMV NEC inh
O=C(CCc1nnc2ccc(N3CCCC3)nn12)Nc1cccnc1	104	103	94	-23
C=CCNC(=O)c1c(O)nc2ccccn2c1=O	104	77	68	-5
CN1CCN(C2=Nc3c(Cl)cc(Cl)c4cccc2c34)CC1	.	119	85	-52
Cc1cccc2cc3c(nc12)N(S(=O)(=O)c1ccc2c(c1)OCO2)CC3	99	.	.	-12
CCOc1ccc(-c2c(C)nn3c(C)c(C(=O)Nc4ccc(OC)c(OC)c4)cnc23)cc1OCC	109	.	.	-11
C/C(=N\N1C(=O)CC(=O)NC1=S)c1ccc(Cl)cc1	.	74	57	-22
O=C(C1CCN(S(=O)(=O)Cc2ccccc2)CC1)N1CCN(c2ccccc2)CC1	101	97	86	-16
CCCn1c(=O)c2sccc2n2c(CCCC(=O)NCCc3ccc(S(N)(=O)=O)cc3)nnc12	101	.	.	-10
CC(C)NC(=O)C1CCC(Cn2c(=O)c3sccc3n(CC(N)=O)c2=O)CC1 (stereo unspecified)	106	.	.	-27
Cc1ccc(Cl)cc1N1CCN(C(=O)C2CCN(Cc3nc(-c4cccc(Cl)c4)oc3C)CC2)CC1	105	115	87	-24
CC(Oc1ccccc1)C(=O)NC1CCSc2ccccc21 (stereo unspecified)	.	71	84	-38
CCc1ccc(CNC(=O)C2CCN(c3nc4ccccc4o3)CC2)cc1	108	112	88	.
O=C(C1CC1)N1CCc2cc(Br)cc(S(=O)(=O)NC3CCCC3)c21	107	99	87	-21
N#CC(C(=O)CCN1C(=O)C2CC=CCC2C1=O)c1nc2ccccc2[nH]1 (stereo unspecified)	.	95	93	-14
COc1cc2c(-c3cc(Br)ccc3O)nc3c(c(C)nn3-c3ccccc3)c2cc1OC	112	91	88	-54
CCN(CC)S(=O)(=O)c1ccc(=O)n(CC(=O)c2ccc[nH]2)c1	.	75	91	-17
CN(Cc1ccco1)C(=O)CNC(=O)c1ccc(Oc2ccccc2)cc1	.	88	88	-26
CC(C)(C)NS(=O)(=O)c1ccc(NC(=O)C2c3ccccc3Oc3ccccc32)cc1	93	.	.	-16
CCc1nc2ccc(C(=O)N3CCN(c4cc(C)ccc4C)CC3)cc2nc1CC	101	109	91	.
COC(=O)C(C#N)c1nc2ccccc2nc1N1CCN(c2ccc(F)cc2)CC1 (stereo unspecified)	.	92	98	4
Cc1ccc(NC(=O)c2oc3ccc(S(=O)(=O)N4CCCCC4)cc3c2C)c(C)c1	106	114	98	.
CCCNc1nc(=O)[nH]nc1C	98	94	95	-2
Cc1ccc(Cl)cc1N1CCN(C(=O)CSc2cc(=O)n(C)c3ccccc23)CC1	102	108	82	-12
O=C1N/C(=C\c2ccc(O)cc2)C(=O)c2ccccc21	102	107	62	30
CC(C)c1cccc(C(C)C)c1N1C(=O)C=CC1=O	102	6.7*	0.2*	-3
O=C(Nc1ccc(S(=O)(=O)Nc2cccc(C(F)(F)F)c2)cc1)c1ccco1	96	110	89	0
COc1ccc(C2CC(=O)C=C(NCC(C)C)C2)cc1 (stereo unspecified)	109	97	82	-22
COC(=O)c1ccc2c(=O)n(CCC(=O)N3CCN(c4ccccn4)CC3)c(=S)[nH]c2c1	107	.	.	-22
CCCN1CCN(C(=O)C2CCN(S(=O)(=O)c3ccc4c(c3)NC(=O)C(C)S4)CC2)CC1 (stereo unspecified)	127	.	.	-2
CC1CCCN(C(=O)C2CC(=O)N(C3CCCCC3)C2)C1 (stereo unspecified)	104&102	102	99	9
Cn1c(=O)n(C)c2ccccc21	109	106	97	1
O=C(Nc1ccc(F)cc1)Oc1ccccc1N1CCOCC1	97	95	91	-17
O=C(Nc1ccc(S(=O)(=O)C(F)F)cc1)c1cccnc1N1CCCC1	.	95	88	-9
COC(=O)CS(=O)(=O)c1ccc2c(c1)CC(=O)N2	105	104	83	-13
CC1CC(C)(C)NC(=S)N1CCC(=O)Nc1ccc(F)c(F)c1 (stereo unspecified)	102	86	92	3
CC(C)[C@H](NC(=O)COc1ccc(C#N)cc1)c1nc2ccccc2[nH]1	.	98	92	24
CC1CCc2c(sc(N)c2C(N)=O)C1 (stereo unspecified)	112	101	70	-54
Cc1ccc(S(=O)(=O)N(C/C=C/c2ccccc2)C(=O)N2CCN(C)CC2)cc1	107	111	101	10
CC1=CC(=C2C(=O)c3ccccc3C2=O)C=C(C)O1	91	89	81	-90
O=C(NN1S(=O)(=O)c2ccccc2S1(=O)=O)c1ccc(Br)cc1	102	114	86	.
CC(=NCCCN1CCOCC1)c1c(C)[nH]n(-c2ccc(F)cc2)c1=O	100	105	94	1
O=c1oc(-c2cccs2)nn1CN1CCCC2CCCCC21 (stereo unspecified)	.	103	83	-60
CCc1ccc(Oc2coc3cc(O)ccc3c2=O)cc1	105	115	91	-27
COC(=O)C1=CN(Cc2cccs2)C=C(C(=O)OC)C1c1cccc(OC)c1	106	114	76	.
CC(=O)N1CCCC1c1nc2ccccc2n1CC(=O)N1CCCCC1 (stereo unspecified)	104	.	.	-12
Cn1cccc1C(=O)OCC(=O)c1c[nH]c2ccccc12	.	99	92	-6
O=C(NCCN=C1NS(=O)(=O)c2ccccc21)c1ccc(S(=O)(=O)N2CCOCC2)cc1	105	.	.	-22
CCOC(=O)c1c(C)oc2ncnc(N3CCN(c4cccc(Cl)c4)CC3)c12	109	96	86	7
CC(C)CCC1CC(C)(C(C)O)OC1=O (stereo unspecified)	108	105	77	10
COc1ccc(-c2nc(COc3ccccc3Cl)nc(SC)c2C#N)cc1	99	118	90	-10
Cc1cccc(C)c1NC(=O)c1ccc2c(c1)nnn2C1CCCC1	104	100	90	.
O=C(NCCc1ccc(S(=O)(=O)N2CCCCC2)cc1)c1ccc2c(c1)C(=O)c1ccccc1C2=O	107	.	.	-34
Cc1cccc(-n2c(CCN3C(=O)c4ccccc4C3=O)nc3ccccc3c2=O)n1	105	114	86	-35
O=C(COc1ccccc1Cl)N(Cc1cccc(F)c1)C1CCS(=O)(=O)C1 (stereo unspecified)	106	103	83	-5
CC(C)NC(=S)N/N=C/c1ccccc1C(=O)O	.	87	89	11
COc1cc(NC(=O)C2CCN(S(=O)(=O)c3c(C)noc3/C=C/c3c(C)cc(C)cc3C)CC2)cc(OC)c1	108	110	90	.
O=C(NCCCN1CCC(N2CCCCC2)CC1)c1noc2c1CCc1sccc1-2	109	.	.	-26
CCOC(=O)N1CCC(=NNC(=S)Nc2c(C)cccc2C)CC1	.	83	89	-24
COc1ccc(-c2oc3ncn4nc(-c5ccccc5)nc4c3c2-c2ccc(OC)cc2)cc1	106	91	87	-25
O=C(CSCc1cnn(-c2ccccc2)c1-n1cccc1)NCc1ccccn1	112	108	93	0

Copied from the listing for reference:
smiles	GIV-Gai inh	Sa growth inh	Sa growth inh second temp	HCMV NEC inh
CC(=NCCCN1CCOCC1)c1c(C)[nH]n(-c2ccc(F)cc2)c1=O	100	105	94	1
O=c1oc(-c2cccs2)nn1CN1CCCC2CCCCC21 (stereo unspecified)	.	103	83	-60
CCc1ccc(Oc2coc3cc(O)ccc3c2=O)cc1	105	115	91	-27
COC(=O)C1=CN(Cc2cccs2)C=C(C(=O)OC)C1c1cccc(OC)c1	106	114	76	.
CC(=O)N1CCCC1c1nc2ccccc2n1CC(=O)N1CCCCC1 (stereo unspecified)	104	.	.	-12
Cn1cccc1C(=O)OCC(=O)c1c[nH]c2ccccc12	.	99	92	-6
O=C(NCCN=C1NS(=O)(=O)c2ccccc21)c1ccc(S(=O)(=O)N2CCOCC2)cc1	105	.	.	-22
CCOC(=O)c1c(C)oc2ncnc(N3CCN(c4cccc(Cl)c4)CC3)c12	109	96	86	7
CC(C)CCC1CC(C)(C(C)O)OC1=O (stereo unspecified)	108	105	77	10
COc1ccc(-c2nc(COc3ccccc3Cl)nc(SC)c2C#N)cc1	99	118	90	-10
Cc1cccc(C)c1NC(=O)c1ccc2c(c1)nnn2C1CCCC1	104	100	90	.
O=C(NCCc1ccc(S(=O)(=O)N2CCCCC2)cc1)c1ccc2c(c1)C(=O)c1ccccc1C2=O	107	.	.	-34
Cc1cccc(-n2c(CCN3C(=O)c4ccccc4C3=O)nc3ccccc3c2=O)n1	105	114	86	-35
O=C(COc1ccccc1Cl)N(Cc1cccc(F)c1)C1CCS(=O)(=O)C1 (stereo unspecified)	106	103	83	-5
CC(C)NC(=S)N/N=C/c1ccccc1C(=O)O	.	87	89	11
COc1cc(NC(=O)C2CCN(S(=O)(=O)c3c(C)noc3/C=C/c3c(C)cc(C)cc3C)CC2)cc(OC)c1	108	110	90	.
O=C(NCCCN1CCC(N2CCCCC2)CC1)c1noc2c1CCc1sccc1-2	109	.	.	-26
CCOC(=O)N1CCC(=NNC(=S)Nc2c(C)cccc2C)CC1	.	83	89	-24
COc1ccc(-c2oc3ncn4nc(-c5ccccc5)nc4c3c2-c2ccc(OC)cc2)cc1	106	91	87	-25
O=C(CSCc1cnn(-c2ccccc2)c1-n1cccc1)NCc1ccccn1	112	108	93	0

Additional records follow:
smiles	GIV-Gai inh	Sa growth inh	Sa growth inh second temp	HCMV NEC inh
CC1(C)CC(=O)C2=C(C1)Nc1ccccc1N(C(=O)C1CC1)C2c1cccs1 (stereo unspecified)	.	90	81	-7
CN(CC(=O)N1CCc2ccccc21)S(=O)(=O)c1ccc(-c2ccc(=O)[nH]n2)s1	106	109	95	-54
COc1cc(-c2noc(-c3c(-c4ccccc4Cl)noc3C)n2)cc(OC)c1OC	99	112	84	.
CCSC1(SCC)N=C(N)C2(C#N)C(c3ccc(F)cc3)C12C#N (stereo unspecified)	103	100	54	.
O=C1COc2ccccc2CN1c1ccc(Cl)cc1	.	105	81	-4
COC(=O)c1ccc(NC(=O)CSc2nc3ccc(N4C(=O)c5cccc([N+](=O)[O-])c5C4=O)cc3s2)cc1	106	.	.	-3
O=C(O)c1cc(Nc2ccc3c(c2)OCO3)c2cccc(Cl)c2n1	99	.	.	-147
Cc1ccc(CNC(=O)Cn2ccn(-c3ccc(C)c(C)c3)c(=O)c2=O)cc1	94	104	81	-28
Cc1cc(N2CCCC2)n2nc(C)c(-c3ccc(F)cc3)c2n1	106	.	.	-18
O=C1N(CN2CCOCC2)c2ccccc2C12OCCCO2	92	.	.	-44
CCNC(=O)c1ccccc1Sc1ccccc1COC(C)=O	98	93	89	-13
CN(c1ccccc1)S(=O)(=O)c1ccc2c(c1)CCN2S(C)(=O)=O	101	101	79	-11
CC1Sc2ccc(S(=O)(=O)N3CCC(C(=O)N4CCCC4)CC3)cc2NC1=O (stereo unspecified)	113	.	.	0
COc1ccc(-c2noc(N3CCN(c4cccc(Cl)c4)CC3)n2)cc1OC	104	106	77	.
O=C1C(=Nc2cccnc2)c2ccccc2N1CN1CCOCC1	106	99	65	.
Cc1ccc(S(=O)(=O)N2CCCC(c3nc4c(nnn4Cc4ccc5c(c4)OCCO5)c(=O)[nH]3)C2)cc1 (stereo unspecified)	99	94	83	-15
CC(C)NC(=O)c1cnc2sc(N3CCCCCC3)nn2c1=O	99	90	87	.
O=C(CSc1nnc(COc2ccccc2)o1)NCCc1ccccc1	106	93	93	-25
O=C(O)c1sccc1S(=O)(=O)Nc1ccccc1N1CCCCC1	97	182	97	-8
Cc1ccc(-c2nnn(CC(=O)N3CCCC3c3ccc4c(c3)OCCCO4)n2)cc1 (stereo unspecified)	.	79	98	-31
Cc1noc(-c2ccc(N3CCCCC3C)c([N+](=O)[O-])c2)n1 (stereo unspecified)	101	95	88	-29
CCCC(C)C(=O)Nc1ccc(F)cc1 (stereo unspecified)	100	105	101	-8
O=c1ccc2cc3c(-c4ccc(F)cc4)coc3cc2o1	98	109	84	.
